# Source: PubChem BioAssay
# VDR inh = inhibitors of human vitamin D receptor. P11473. VDR-SRC2-3 peptide fluorescence polarization, 2 h. Potency, µM, for the others: max response, negative = inhibition, hits mostly inhibitors. 400,000 compounds, 0.93% hits. AID 504847; active = well fitted inhibition curve with a large enough effect; inconclusive = small, poorly fitted or top-dose-only effect, or another doubt; inactive = no such curve, though single readings can be large or run the other way; also: series mostly up to about 120 µM
# Target sequence (P11473 whole entry, looked up): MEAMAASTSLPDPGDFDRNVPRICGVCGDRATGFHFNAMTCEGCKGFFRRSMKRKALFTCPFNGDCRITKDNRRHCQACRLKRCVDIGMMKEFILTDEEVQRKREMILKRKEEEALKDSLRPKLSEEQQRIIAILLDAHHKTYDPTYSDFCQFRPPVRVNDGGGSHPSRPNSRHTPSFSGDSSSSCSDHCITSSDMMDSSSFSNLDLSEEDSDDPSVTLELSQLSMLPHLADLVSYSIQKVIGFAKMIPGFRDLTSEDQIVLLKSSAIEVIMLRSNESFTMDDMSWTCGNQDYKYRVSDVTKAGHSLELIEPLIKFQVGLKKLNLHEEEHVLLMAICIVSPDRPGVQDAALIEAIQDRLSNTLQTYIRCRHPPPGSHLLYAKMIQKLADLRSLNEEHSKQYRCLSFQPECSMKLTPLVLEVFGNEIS
#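 Fluorescence polarization assay of small-molecule disruption of VDR binding to coregulator peptide SRC2-3. Compounds and controls pin-transferred, then read after 2 h incubation at ambient room temperature.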
# * = called active by the depositor; ? = inconclusive; & = joins results of further samples. % is scaled to controls: 0 for no effect and ±100 for the full control effect; potency is read from the fitted curve at half-maximal effect. These rows are one share of the data; count on the stated rates, not on these rows.
# Preview:
Molecule,VDR inh
COc1ccc(OC)c(S(=O)(=O)n2nc(C)cc2C)c1,-11%
Cc1ccc(Nc2nc3c(c(=O)[nH]c(=O)n3C)n2Cc2ccc(F)cc2)cc1,18%

# The list itself, from the first entry:
Molecule,VDR inh
COc1ccc(OC)c(S(=O)(=O)n2nc(C)cc2C)c1,-11%
Cc1ccc(Nc2nc3c(c(=O)[nH]c(=O)n3C)n2Cc2ccc(F)cc2)cc1,18%
COc1ccc(C(=O)Nc2ccc(N3CCOCC3)cc2)cc1S(=O)(=O)NC1CCCC1,-5%
O=S(=O)(c1ccc(SCCOc2ccc(Br)cc2)nc1)N1CCCC1,-15%
C=CCn1c(COc2ccc(F)cc2)nnc1SC(C)C(=O)NCC1CCCO1 (configuration not stated),26%
O=C(CSc1nnc(CNC(=O)c2c(F)cccc2Cl)o1)NCc1ccc2c(c1)OCO2,5%
CC[C@H]1C(c2ccc(F)cc2)=NN(c2ccccc2)[C@@H]1CO,-8%&-7%
CC(C)Cc1nnc(NC(=O)c2cc(-c3ccncc3)nc3ccccc23)s1,-4%
O=C(CSCc1cnn(-c2ccccc2)c1-n1cccc1)NCC1CCCO1 (configuration not stated),27%
Cc1ccc(CC(=O)Nc2nncs2)cc1,-15%
CCOC(=O)c1[nH]c(C)c(C(=O)Nc2cc(OC)ccc2OC)c1C,-3%
CSCC[C@H](N)C(=O)N1CCC(C(=O)N[C@@H](Cc2c[nH]c3ccccc23)C(=O)O)CC1,19%
COc1ccc(NC(=O)c2ccc(Br)o2)cc1,-22%&-3%
CCCc1cc(=O)oc2c(CN3CCOCC3)c(O)ccc12,13%
Cc1ccc(C(=O)NNC(=O)CSc2n[nH]c(-c3cccnc3)n2)cc1,?
Cc1ccc(C)c(S(=O)(=O)N2CCCC2CNC(=O)C(=O)NCc2cccs2)c1 (configuration not stated),15%
Cc1cc(NC(=O)c2ccco2)c(=O)n(Cc2cccc(C(F)(F)F)c2)c1,-9%
C/C(=N\NC(=O)c1cc(C)oc1C)c1ccc2ccccc2c1,2%
c1ccc(-c2nc(NCc3cccnc3)c3ccccc3n2)cc1,-8%
CC1=C/C(=N\NC(=O)c2ccccc2)CC1,-7%
COc1ccc(-n2c(Cc3cccn3C)nnc2SCC(=O)Nc2nc(C)cs2)cc1,-17%
COc1ccc(C(C)=O)cc1COC(=O)CCC(=O)c1cccs1,-1%
CCCNC(=O)Cn1nc(-c2ccc(C)cc2)c2cnc3ccc(CC)cc3c21,4%
C=CCN=c1scc(-c2ccco2)n1/N=C/c1ccc(O)c(O)c1O,-12%
Cc1ccccc1NC(=O)Cn1c(=O)n(CCC(=O)NCc2ccc3c(c2)OCO3)c(=O)c2sccc21,11%
O=C(CN1C(=O)C(=O)c2ccccc21)c1ccc(Cl)cc1,-7%
Cc1ccc(-n2nc3c(c2NC(=O)C2CC2)CS(=O)(=O)C3)cc1,-15%
Cc1ccc(N(CCC(=O)O)S(=O)(=O)c2ccccc2)cc1,-9%
O=C(CN1CCCCCC1)N1c2ccccc2Sc2ccc(C(F)(F)F)cc21,-4%
Cc1cc(Cl)ccc1NC(=S)NCc1ccccc1Cl,-23%

# Next entries follow:
Molecule,VDR inh
COCC(=O)N1CCC2(CCCN(Cc3ccccc3OC)C2)CC1,-3%
COC(=O)c1cccc(NC(=O)c2ccco2)c1,9%
CCc1ccccc1Nc1cc(C(=O)NCc2ccccn2)c2ccccc2n1,-2%
COCC1CCCCN1C(=O)CCCn1nnnc1CN1CCC(C)CC1 (configuration not stated),-7%
O=C(CNC(=O)c1ccc2c(=O)n3c(nc2c1)CCC3)Nc1ccc(F)c(F)c1,1%
O=C(Nc1nc(-c2ccccc2)cs1)C1CCCCN1S(=O)(=O)c1ccc(Cl)cc1 (configuration not stated),-1%
COc1ccc(S(=O)(=O)N2CCC(N3CCN(c4ccccc4OC)CC3)CC2)cc1,-7%
O=S(=O)(Nc1ccc(F)cc1)c1cccc2nsnc12,-27%
O=P(O)(c1ccccc1)c1ccccc1O,-19%
CCOc1cc(C2NC(=O)N(C)C(C)=C2C(=O)OC)cc(Br)c1O (configuration not stated),-11%
O=C(CCc1cccc(Cl)c1)N1CCCC(Nc2ccccc2)C1 (configuration not stated),-8%
O=C(Nc1nnc(-c2ccc(Cl)s2)o1)C1CC1,-22%
COc1ccc(/C=C2\SC(=O)N(CCn3cnnn3)C2=O)cc1,1%
COC(=O)Cn1cc(C(=O)OC)cc(Br)c1=O,11%
CCn1cc(C(=O)NCc2ccc3c(c2)OCO3)c(=O)c2cc(S(=O)(=O)N3CCOCC3)ccc21,12%
O=C1NC(=S)SC1=Cc1cccs1,20%
O=C(/C=C/c1cccnc1)c1cc(F)ccc1O,?
O=C(Nc1ccccc1Sc1ccccc1)c1ccccc1F,-10%
CN1CCCC(OC(=O)c2cccc(Br)c2)C1 (configuration not stated),2%
CC(C)c1ccc(C(C(=O)NC2CCCCC2)N(C(=O)c2ccccn2)c2cccnc2)cc1 (configuration not stated),4%
CCc1c(C)sc(NC(=S)N2CCN(S(C)(=O)=O)CC2)c1C(=O)OC,-22%
CC(C)(C)NCC(O)(c1ccc(Cl)cc1)c1ccc(Cl)cc1,0%
O=C1C2C(c3ccccc3)CC=CC2C(c2ccc3ccccc3c2)N1Cc1ccccc1 (configuration not stated),-13%
CC1=NN(C(=O)CSCc2ccccc2)C(O)(c2ccc(F)cc2)C1 (configuration not stated),-3%
COc1ccc(S(=O)(=O)NC2(C(F)(F)F)NC(=O)N(CCc3ccc(OC)c(OC)c3)C2=O)cc1 (configuration not stated),5%&-13%
Cc1ccccc1Nc1c(-c2cc(Br)ccc2F)nc2ccccn12,10%
COc1cccc(CNC(=O)c2nnn(CC(=O)Nc3cccc(C)c3)c2N)c1,2%
C=CCn1c(SCC(=O)N2CCN(C(=O)c3ccco3)CC2)nc2sc(CC)cc2c1=O,-16%
O=C(COc1ccc2ccccc2c1)N1CCN(C(=O)c2cccnc2)CC1,-22%
CCOC(=O)C1=C(C)Nc2ccc(C)cc2S1,?

# A stretch from the list above, as a working copy:
Molecule,VDR inh
COCC(=O)N1CCC2(CCCN(Cc3ccccc3OC)C2)CC1,-3%
COC(=O)c1cccc(NC(=O)c2ccco2)c1,9%
CCc1ccccc1Nc1cc(C(=O)NCc2ccccn2)c2ccccc2n1,-2%
COCC1CCCCN1C(=O)CCCn1nnnc1CN1CCC(C)CC1 (configuration not stated),-7%
O=C(CNC(=O)c1ccc2c(=O)n3c(nc2c1)CCC3)Nc1ccc(F)c(F)c1,1%
O=C(Nc1nc(-c2ccccc2)cs1)C1CCCCN1S(=O)(=O)c1ccc(Cl)cc1 (configuration not stated),-1%
COc1ccc(S(=O)(=O)N2CCC(N3CCN(c4ccccc4OC)CC3)CC2)cc1,-7%

# The results go on.
Molecule,VDR inh
Cc1cc(NC(=O)CCCSc2nc(-c3ccco3)cc(C(F)(F)F)n2)n(-c2ccccc2)n1,7%
COc1ccccc1NS(=O)(=O)c1ccc(C(=O)N2CCCCCCC2)cc1,-16%
O=C(NC(=S)NCCCN1CCOCC1)c1ccc(Br)cc1,2%
N#CN=C1CCCCCN1CC(N)=O,-18%
Nc1nc(CN2CCN(Cc3ccc4c(c3)OCO4)CC2)nc(Nc2ccccc2)n1,1%
O=C(CN1CCN(Cc2ccccc2)CC1)Nc1ccc(Cl)cc1,13%
COc1ccc(N(C(=O)c2ccncc2)S(=O)(=O)c2cccc([N+](=O)[O-])c2)cc1,?
Cc1c(-c2cccc(NC(=O)Nc3ccccc3)c2)nc2ncccn12,-2%
O=C(/C=C/c1ccc(Cl)c(C(F)(F)F)c1)N1CCN(c2ccccn2)CC1,-17%
COC(=O)c1ccccc1NC(=O)Nc1c(C)n(C)n(-c2ccccc2)c1=O,-18%
O=C(CSc1nnc(-c2ccc(Cl)cc2)c(-c2ccc(Cl)cc2)n1)NC1CCCC1,0%
O=C(Nc1ccccc1-c1nnc(SCc2ccccc2Cl)o1)c1ccccc1,-3%
Cc1oc2c(c1C(=O)c1ccccc1)C(=O)C(=O)c1ccccc1-2,?
O=S(=O)(NCCC1=CCCCC1)c1cccc(S(=O)(=O)N2CCOCC2)c1,-27%
COc1ccc(CNC(=O)C2CSCCS2)cc1 (configuration not stated),8%
Cc1c(NC(=O)c2cc(-c3ccc(O)cc3)on2)c(=O)n(-c2ccccc2)n1C,-5%&-17%
Cc1c(C(=O)NC2CCN(Cc3ccccc3)C2)oc2c(Cl)cccc12 (configuration not stated),-4%
Cc1ccc(C(=O)O/N=C(\N)c2ccccn2)cc1,-6%
Cc1cccc(OCC(=O)NNC(=O)CCc2ccccc2)c1,-16%
COc1ccc(OC)c(S(=O)(=O)Nc2cccc(-c3ccc(N4CCCCCC4)nn3)c2)c1,10%&-8%
Cc1cc(C)cc(NS(=O)(=O)c2ccc3[nH]c(=O)[nH]c3c2)c1,10%
O=C1C(=O)c2ccccc2C([O-])=C1[n+]1ccccc1,-15%
CC(C)CNC(=O)c1cc(-c2ccco2)on1,1%
CS(=O)(=O)N1CCN(c2ccc(NC(=O)C(c3ccccc3)c3ccccc3)cc2)CC1,-4%
Cc1oc(C(C)(C)C)cc1-c1cc(NC(=O)c2ccc([N+](=O)[O-])cc2)n[nH]1,-4%
Cc1ccc(-n2c(=O)c3sccc3n(CC(=O)NC3CCCCC3)c2=O)cc1,2%
COc1ccccc1/C=N\NC(=O)c1c(C)nc2ccc(Cl)cn12,-4%
COc1ccc(C2/C=C\CN(C(=O)c3ccccc3)C(C)C(=O)N2Cc2ccc(F)cc2)cc1 (configuration not stated),-27%
CN(Cc1cccnc1)C(=O)c1ccc(Cl)c(NS(=O)(=O)c2ccc(F)cc2)c1,-13%
COc1cc2sc3ccc(-c4ccc5[nH]ccc5c4)cc3c(=O)c2cc1OC,2%

# Next compounds.
mol,VDR inh
C/C(=N\NC(=O)c1ccc2c(c1)OCO2)c1ccco1,-13%
Cc1oc(C)c2c(=O)cc(-c3ccc4c(c3)OCO4)cc(OC(=O)c3ccccc3Br)c12,-2%
COCCNCc1ccccc1[N+](=O)[O-],-9%
COc1ccc(-n2c(=O)c(-c3cccs3)nc3cnc(Oc4ccccc4)nc32)cc1,-4%
CC(C)Cn1cc(NC(=O)NCc2cccc(Cl)c2)c2ccccc2c1=O,6%
Cc1cc(S(=O)(=O)Nc2c(C)ccc3nsnc23)ccc1F,9%
Cc1cc(Cl)ccc1OCC(=O)NCCOC(=O)Nc1sc(=S)n(C)c1C,?
CC1=C(C(=O)OC(C)C)C(c2cccnc2)C2=C(CCCC2=O)N1 (configuration not stated),6%
Cc1ccc(Cn2c(N/N=C/c3ccncc3)nc3c2c(=O)n(C)c(=O)n3C)cc1,9%
Cc1onc(-c2ccccc2)c1C(=O)NNC(=S)NC(=O)c1ccc(Cl)cc1Cl,-10%
Cc1cccc(NC(=S)N2CCN(S(=O)(=O)c3ccccc3)CC2)c1,-5%
CCCCC#Cc1cncc(C(=O)N/N=C/c2cccc(OC)c2)c1,0%
CCc1noc(C)c1C(=O)Nc1nnc(C(CC)CC)s1,2%
Cc1cccc(/C=C(\C#N)c2nc3ccccc3c(=O)[nH]2)c1,-18%
O=C(COC(=O)c1ccccc1[N+](=O)[O-])c1ccc2c(c1)OCO2,-3%
COc1ccccc1Nc1ncnc2scc(-c3ccc(F)cc3)c12,5%
COc1ccc2[nH]c(C(=O)O)c(NS(=O)(=O)c3ccc(C)cc3C)c2c1,-2%
CCCc1ccc(Oc2c(-c3ccc(O)c(C)c3O)n[nH]c2C)cc1,9%
CCCOc1ccc(OCCN2CCCC(C)C2)cc1 (configuration not stated),-4%
CCOC(=O)c1ccc(N=Nc2c(C)c(C#N)c(O)[nH]c2=O)cc1,10%

# The list continues.
mol,VDR inh
CCCCC(=O)Nc1ccc(NC(=S)NC(=O)c2ccco2)cc1OC,17%
O=C(NCc1nnc(SCC(=O)N2CCOCC2)o1)c1cccs1,25%
CCCCn1c(N)c(N(CCC(C)C)C(=O)C2CC(=O)N(c3cccc(SC)c3)C2)c(=O)[nH]c1=O (configuration not stated),-6%
CCc1ccccc1NC(=O)NC(C)c1ccc2c(c1)OCO2 (configuration not stated),-7%
Cc1oc(-c2ccccc2)nc1C(=O)OCC(=O)NC(C)c1ccccc1 (configuration not stated),7%
CCCCNC(=O)N1CCC(CCC(=O)N(C)Cc2ccccc2)CC1,-13%
Cc1ccc(S(=O)(=O)N2CCCN(c3nccc(C(F)(F)F)n3)CC2)cc1,1%
Cc1ccccc1N1C(=O)CN(Cc2sccc2C)C1=S,-9%
Cc1cccc(CNc2ncncc2-c2cccc(C#N)c2)c1,-17%
Cc1ccc2c(CC(=O)NCC(C)(C)N3CCOCC3)coc2c1,14%
COc1ccc(CC(=O)OCc2nnc(C3COc4ccccc4O3)o2)cc1OC (configuration not stated),-3%
CCCn1c(Nc2ccccc2C)nc2ccccc21,4%
O=C(NCc1ccncc1)C1CCCCC1,-26%
CCOC(=O)C1CCCN(C(=O)c2ccc3c(c2)N(Cc2ccccc2F)C(=O)c2ccccc2S3=O)C1 (configuration not stated),3%
COC1C(C)=C(C)C(=O)N1Cc1ccccc1 (configuration not stated),14%
CN(C)CCNc1ccc2ncn3c4ccc(O)cc4c(=O)c1c23,10%
COc1ccc(C(=O)c2c[nH]c(C(=O)NCC3CCCO3)c2)cc1 (configuration not stated),1%

# Four compounds out of the list, sorted by SMILES length, lowest first:
mol,VDR inh
CCc1ccccc1NC(=O)NC(C)c1ccc2c(c1)OCO2 (configuration not stated),-7%
COc1ccc(C(=O)c2c[nH]c(C(=O)NCC3CCCO3)c2)cc1 (configuration not stated),1%
COc1ccc(CC(=O)OCc2nnc(C3COc4ccccc4O3)o2)cc1OC (configuration not stated),-3%
CCCCn1c(N)c(N(CCC(C)C)C(=O)C2CC(=O)N(c3cccc(SC)c3)C2)c(=O)[nH]c1=O (configuration not stated),-6%
